High-throughput results from PubChem BioAssay.
Calb biofilm kill – mixtures killing C. albicans biofilm; inhibition, % at 7.6 µM; 120,000 tested, 0.02% active; AID 1242; C. albicans biofilm persisters + clotrimazole, fluorescence viability; primary screen in compound mixtures of four per well;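 active = inhibition above 30.3% in the primary screen of four-compound pools, then above 30% when the compound was retested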;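 also: compounds exposed to preformed 24 h biofilms for 48 h; the number belongs to the whole pool; some results filed as inactive read as strong as hits; inactives centre near 12; 0% = biofilm with clotrimazole alone and 100% = kill control; retested singly at about 60 µM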
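Test system: C. albicans CAF4-2 wild-type biofilms; buffer or medium: RPMI/MOPS medium, pH 7.0; schedule: 24 h biofilm formation, then 48 h compound exposure, 37 °C; detection: Alamar Blue fluorescence; measure: percent inhibition of biofilm viability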
* hit, by the source's call. A portion of the library, so the mix of outcomes need not match the whole.

SMILES	Calb biofilm kill
Cc1ccccc1C(C(=O)NC1CCCC1)N(C(=O)CNC(=O)c1ccco1)c1cccnc1 (configuration not stated)	12
Cc1ccc(C)c(Oc2cc(NC(=O)CCCn3nc(C)c([N+](=O)[O-])c3C)cc([N+](=O)[O-])c2)c1	17
CC(C)(C)NC(=O)NC(=O)COC(=O)Cc1coc2ccc3ccccc3c12	16
CC(=O)N1CCN2C(=O)C1CCCC(=O)c1cc(C(C)C)ccc12 (configuration not stated)	9
CC(C)(C)/C=N/NC(=O)CNC(=O)c1ccc2c(c1)OCCO2	11
Cc1ccc(/C=N/NC(=O)c2ccncc2)s1	27
Cc1ccc(NC(=S)Nc2ccc(OC(F)F)c(Cl)c2)cc1F	17
NC(=O)CSc1nnc(Cn2cnc3ccccc32)o1	-1
O=Nc1ccc(NOC(=O)c2ccccc2Br)cc1	9
Cc1cccc(OCC(=O)N/N=C/c2cccn2C)c1	16
Cc1ccc(-c2ccc(C(=O)Nc3ccccc3)o2)c2ccccc12	5
COCCNC(=S)N/N=C(\C)c1cccc(OC)c1	8
CC1=CC(C)C2C(=O)N(c3ccccc3)NC(=O)C2C1 (configuration not stated)	-1
O=C(Nc1ccc(CN2CCCCC2)cc1)Nc1ccc(Br)cc1Cl	4
CNc1ccccc(-c2ccc3ccccc3n2)c1=O	8
Cc1ccc(-c2nc(N)sc2-c2ccccc2)cc1C	4
Cc1ccccc1C(=O)NC(CC(C)C)C(=O)Nc1cccc(S(=O)(=O)N(C)C)c1 (configuration not stated)	11
OC(COCc1ccc2c(c1)OCO2)CN1CCC(Cc2ccccc2)CC1 (configuration not stated)	15
O=S(=O)(c1ccc(Br)c2nsnc12)N1CCOCC1	-1
Cc1ccc(NN=C2C(=O)OC(C)(C)OC2=O)c(C)c1	12
COc1ccc(-c2cnc3nc[nH]c(=O)c3n2)cc1	8
Fc1ccc(-n2nnnc2-c2ccccc2Cl)cc1	12
CCCCN(CC)CCNC(=O)c1cn(-c2ccc(Cl)cc2)c(=O)c2ccccc12	19
O=S1(=O)CC(O)C(N(CCO)C(=S)Nc2ccccc2)C1 (configuration not stated)	22
CCc1cc(SC#N)cc(C)c1NC(=O)CCl	16
CCOC(=O)C1=C(C)N(C)C(=S)NC1c1ccc(Cl)cc1Cl (configuration not stated)	11
CCC(OC(C)=O)c1cc2c(cc1[N+](=O)[O-])OCCO2 (configuration not stated)	18
O=C(CN1C(=O)COc2ccc(S(=O)(=O)N3CCCC3)cc21)NCc1ccccn1	11
CCCCn1c(SCc2cccc([N+](=O)[O-])c2)nc2ccsc2c1=O	15
COc1cc(-c2csc(CCn3nc(C)cc3C)n2)cc(OC)c1OC	12
CCOc1ccccc1NC(=O)Cn1[nH]c(=O)c2ccccc2c1=O	14
CCCc1nc2ccc([N+](=O)[O-])cc2[nH]1	11
O=C(Nc1cccc(S(=O)(=O)NC2=NCCC2)c1)C1CC(=O)N(c2ccc3c(c2)OCCO3)C1 (configuration not stated)	31
O=c1c2[nH]c3ccc(F)cc3c2nc2n1CCS2	16
O=C(/C(=C(\O)c1ccccc1)c1nc2ccccc2[nH]1)c1ccccc1	26
Cc1cc(C)c(S(=O)(=O)c2ccccc2)c(OC(=O)c2c(F)cccc2F)n1	4
Cc1nn(-c2ccccc2)nc1C(=O)Oc1cc(C(F)(F)F)nn1-c1ccccc1	11
Cc1cc2cc(CN3C(=O)c4ccccc4C3=O)ccc2n1C	3
O=C(CN(c1ccc(F)cc1)S(=O)(=O)c1ccccc1)Nc1ccccc1C(=O)O	0
COc1ccc(NC(=O)CC(c2ccc(F)cc2)c2ccc(OC)cc2)cc1 (configuration not stated)	14
CNC(=O)COC(=O)/C=C/c1cn(-c2ccccc2)nc1-c1ccc2c(c1)OCCO2	11
COCCNS(=O)(=O)c1cc(C)c(C)cc1C	19
COc1ccc(NC(=O)CCCn2c(=O)oc3ccccc32)cc1Cl	4
O=C(NCCCO)c1cc([N+](=O)[O-])cc2c1C=Cc1ccccc1O2	13
S=C1NCN(Cc2cccnc2)CN1Cc1ccccc1	13
CC(=O)C(C(C)=O)C1(O)C(=O)c2ccccc2C1=O	-22
CCC/C=N/NC(=O)c1cc(-c2ccccc2)nc2ccccc12	19
C=CCn1c(SCC(=O)NC(=O)NC)nnc1C1CCCCC1	23
Cc1cccc(-n2c(=S)[nH]c3sc4c(c3c2=O)CCc2ccccc2-4)c1	17
COc1ccc(NS(=O)(=O)c2ccc(C(=O)N3CCN(Cc4ccccc4)CC3)cc2)cc1	2

(continued)
SMILES	Calb biofilm kill
COc1ccc(C(=O)N2CCC(O)(c3ccc(Cl)cc3)CC2)cc1OC	0
Nc1nc(Nc2cccc(F)c2)nc(NCc2ccco2)c1[N+](=O)[O-]	26
O=C(COC(=O)c1cccs1)Nc1ccccc1[N+](=O)[O-]	8
CCn1cc(/C=N\NC(=O)C2(C)CC2(Cl)Cl)c(C)n1 (configuration not stated)	13
CCc1cc(C(=O)NNC(=O)CCl)sc1C	7
O=C(Nc1ccc(Cl)cc1)Nc1cnccn1	29
O=C(NCC1CCCN(C(=O)c2cscn2)C1)c1ccccc1Cl (configuration not stated)	25
CCC(C)(C)NC(=O)Cc1ccc(Cl)cc1	3
Cc1cc(C)c(C)c(S(=O)(=O)N2CCC(C(=O)Nc3ccccc3N3CCOCC3)CC2)c1C	21
N=c1n(CC(=O)c2cccc([N+](=O)[O-])c2)c2ccccc2n1Cc1ccccc1	2
Cc1cccc(N2CCN(C(=O)Cc3ccc(-n4c(=O)[nH]c5ccsc5c4=O)cc3)CC2C)c1 (configuration not stated)	9
CCOc1ccc(C(=O)NC(=S)Nc2ccccc2N2CCOCC2)cc1Br	7
CN(C)S(=O)(=O)c1cccc(C(=O)c2nccn2C)c1	16
CC(=O)c1c(C)[nH]c(C(=O)OCCOc2ccccc2)c1C	12
CC(C)(C)c1ccc(C(=O)NCC(=O)OCC(=O)Nc2nc(-c3ccc(F)cc3)cs2)cc1	25
O=C(NC(=S)Nc1cccc(NC(=O)c2ccc(Cl)cc2Cl)c1)c1cccs1	9
Clc1ncnc2scc(C3COc4ccccc4O3)c12 (configuration not stated)	13
O=C1NC[C@@H](Cc2cccc3ccccc23)N(CC2CCCCC2)C1=O	7
CCCC1CCC(=NNC(=O)CNc2ccc(OC)cc2)CC1 (configuration not stated)	9
C[N+](C)(CC#N)C/C=C\c1ccccc1	21
O=C1c2cccc(OCC(=O)N3N=C(c4cccs4)CC3c3ccc(F)cc3)c2CCN1Cc1ccccc1 (configuration not stated)	20
Cc1ccc(NC(=S)Nc2ccc(OC(F)F)c(Cl)c2)cc1Cl	0
COc1ccc(C(=O)NCc2cccs2)cc1S(=O)(=O)N1CCOCC1	13
NC(=O)C1CCN(S(=O)(=O)c2ccc3c(c2)OCCO3)CC1	23
COc1ccc(N(C(=O)CCl)C(C)(C(=O)Nc2c(C)cccc2C)c2ccccn2)cc1 (configuration not stated)	6
O=C(O)C1CCC(Cn2c(SCc3cc(=O)n4cc(Br)ccc4n3)nc3ccsc3c2=O)CC1 (configuration not stated)	8
COc1ccc(NC(=O)c2c(F)cccc2F)cc1S(=O)(=O)Nc1ccc(Br)cc1	13
COc1ccc(OCC(=O)N2CCN(S(=O)(=O)c3ccccc3[N+](=O)[O-])CC2)cc1	2
C/C(=N\O)c1c(O)cc(-c2ccccc2)n(-c2ccccc2)c1=O	4
O=C(C1=C[C@H](c2coc3ccccc3c2=O)C[C@H](OCCCCO)O1)N1CCN(Cc2ccccc2)CC1	21
CCOC(=O)Cc1csc(NC(=O)Cc2ccc([N+](=O)[O-])cc2)n1	18
Cc1cc(C)c(NS(=O)(=O)c2ccc(NC(=O)c3cccs3)cc2)c(C)c1	6
Cn1nc(C(=O)Nc2nnc(C3CC3)s2)c2ccccc2c1=O	5
COc1ccc(/C=C(\C#N)C(=O)NCCc2ccccc2)cc1OCc1ccccc1	8
CCc1ccccc1NC(=O)Cc1ccc(-n2cccc2)cc1	12
Cc1cc(C)n2cc(CSCC(=O)O)nc2n1	11
CCN(CC)C(=O)CSc1nc(O)c(Cc2ccccc2)c(=O)n1-c1ccc(C)cc1	23
CCOC(=O)c1sc(NC(=O)CCC(=O)O)nc1C	4
Cc1ccn2c(NC3CCCC3)c(-c3ccsc3)nc2c1	30
ON(Cc1c(F)cccc1Cl)Cc1c(F)cccc1Cl	6
CCOc1cccc(NC(=O)Cn2nc(-c3ccc4c(c3)OCCO4)ccc2=O)c1	11
Cc1ccc(OCCN2CCN(C(=O)CCC(=O)Nc3nnc(CC(C)C)s3)CC2)cc1	1
COc1cc(/C=N/Nc2ccccn2)ccc1OCC(C)C	-7
CC(C)CCC(C)NC(=O)c1ccc2nccnc2c1 (configuration not stated)	-8
CCOCCCNC(=O)c1cc(=O)n(Cc2cccc(C)c2)c2ccccc12	6
CC(C)(C)OC(=O)N1CCC(c2cc(=O)n3[nH]cc(C(=O)Nc4ccc(F)c(Cl)c4)c3n2)CC1	13
CS(=O)(=O)N(CC(=O)NCCC1=CCCCC1)c1cccc([N+](=O)[O-])c1	8
CCOc1ccc(/C=N/NC(=O)CC(=O)NCc2ccccc2)cc1	44
COc1ccc(CNC(=O)C2Cc3ccccc3CN2C(=O)c2ccco2)cc1 (configuration not stated)	3
COCCCn1c(-c2cccs2)nc2nc3ccccc3nc21	7

Ordered by molecular weight (ascending): some entries from above.
SMILES	Calb biofilm kill
Cc1cc(C)n2cc(CSCC(=O)O)nc2n1	11
CC(C)CCC(C)NC(=O)c1ccc2nccnc2c1 (configuration not stated)	-8
CCOC(=O)c1sc(NC(=O)CCC(=O)O)nc1C	4
Cc1ccn2c(NC3CCCC3)c(-c3ccsc3)nc2c1	30
COc1cc(/C=N/Nc2ccccn2)ccc1OCC(C)C	-7
CCc1ccccc1NC(=O)Cc1ccc(-n2cccc2)cc1	12
ON(Cc1c(F)cccc1Cl)Cc1c(F)cccc1Cl	6
COCCCn1c(-c2cccs2)nc2nc3ccccc3nc21	7
CCOc1ccc(/C=N/NC(=O)CC(=O)NCc2ccccc2)cc1	44
COc1ccc(CNC(=O)C2Cc3ccccc3CN2C(=O)c2ccco2)cc1 (configuration not stated)	3
Cc1cc(C)c(NS(=O)(=O)c2ccc(NC(=O)c3cccs3)cc2)c(C)c1	6
CCOc1cccc(NC(=O)Cn2nc(-c3ccc4c(c3)OCCO4)ccc2=O)c1	11
COc1ccc(/C=C(\C#N)C(=O)NCCc2ccccc2)cc1OCc1ccccc1	8
CCN(CC)C(=O)CSc1nc(O)c(Cc2ccccc2)c(=O)n1-c1ccc(C)cc1	23
Cc1ccc(OCCN2CCN(C(=O)CCC(=O)Nc3nnc(CC(C)C)s3)CC2)cc1	1
CC(C)(C)OC(=O)N1CCC(c2cc(=O)n3[nH]cc(C(=O)Nc4ccc(F)c(Cl)c4)c3n2)CC1	13

(cont.)
SMILES	Calb biofilm kill
Cc1cccc(NC(=O)c2ccc(C3SCC(=O)N3CCc3ccccc3)cc2)c1 (configuration not stated)	23
O=C(C[n+]1cc(-c2ccc(Br)cc2)n2c1CCCCC2)c1ccccc1	15
COc1cc(/C=C/C(=O)Nc2nnc(C(C)(C)C)s2)cc(OC)c1OC	12
COC(=O)[C@@]1(Cc2ccc(F)cc2)[C@H]2c3cc(C(=O)N(C)C)n(CCc4ccc(OC)c(Br)c4)c3C[C@H]2CN1C(=O)c1ccccc1	17
CN(C(=O)c1ccc(S(=O)(=O)c2cccc(Cl)c2)c([N+](=O)[O-])c1)C1CCCCC1	20
COc1cccc(NC(=O)CN(C)CC(=O)Nc2ccc3c(c2)CCC3)c1	17
CCc1ccc(NC(=O)Cn2ncc3c4ccccc4n(C)c3c2=O)cc1	17
COc1ccccc1/C=C/CN1CCCC(CCC(=O)NCc2ccccc2F)C1 (configuration not stated)	-4
CC(C)(C)CC(C)(C)NC(=S)NC1CCN(Cc2ccccc2)CC1	17
CN1C(=O)NC(NS(=O)(=O)c2ccc(N)cc2)(C(F)(F)F)C1=O (configuration not stated)	18
COC(=O)c1ccc(/C=C/C(=O)O)cc1	16
CCCCN(C(=S)NC(=O)c1ccccc1)c1c(N)n(Cc2ccccc2)c(=O)[nH]c1=O	12
CC1CC1c1ccc(/C=C(\C#N)C(=O)Nc2ccc(Cl)cc2Cl)o1 (configuration not stated)	15
CC12CN(NC(=O)c3ccccc3F)C3(C#N)CC1CCC23C (configuration not stated)	4
O=C(NCCCn1ccnc1)C(=O)NCC1OCCCN1S(=O)(=O)c1ccc(F)cc1 (configuration not stated)	5
Oc1ccc(Br)cc1C=Nc1ccc2[nH]ncc2c1	17
COc1ccc(NC(=O)c2nn(C)cc2[N+](=O)[O-])cc1	13
COc1ccc(C(=O)Nc2ccc(C(=O)OCC(=O)c3cccc4ccccc34)cc2)cc1	15
COc1ccccc1N1C(=S)N=C(Nc2c(C)cccc2C)C12CCCC2	20
O=C(O)C1Sc2[nH]c(=O)sc2C2c3cc(Br)ccc3OC(=O)C12 (configuration not stated)	12
CN(Cc1ccccc1)c1ccc(S(=O)(=O)N2CCC(C(=O)O)CC2)cc1[N+](=O)[O-]	11
CN(C)S(=O)(=O)c1cccc(C(=O)NCC2(N3CCOCC3)CCCCC2)c1	19
Cc1cccc(OC(C)C(=O)N/N=C\c2ccncc2)c1 (configuration not stated)	3
CCCCC(=O)Nc1ccc(C(=O)NNC(=O)c2ccc(C)c(Br)c2)cc1	1
Cc1occc1C(=O)NNC(=O)Nc1ccc(F)cc1F	13
CN(C[C@H](Cc1ccccc1)N(C[C@H](Cc1ccccc1)N(CCC(C)(C)C)N=O)N=O)N=O	22
O=Cc1ccccc1-n1cccn1	20
Cc1ccc(C(=O)Nc2nc3ccc(S(C)(=O)=O)cc3s2)o1	11
CCOP(=O)(OCC)c1nc(-c2ccc(Cl)cc2Cl)oc1N1CCCCC1	19
NC(=O)c1ccc(NC(=O)CCC(=O)N2CCN(S(=O)(=O)c3ccc(Cl)cc3)CC2)cc1	7
Nc1ccccc1Sc1nc2ccccc2[nH]1	5
